High-throughput results (PubChem)
MT1-MMP act inh: blocks activation of human MT1-MMP; P50281; GFP/RFP ratio change, % at 20 µM; hit rate 0.061% among 360,000; AID 651647; HT1080 RFP-PRO-GFP cells, GFP/RFP ratio fluorescence, overnight; percent of plate control window, DMSO zero;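 active means GFP/RFP ratio change of at least 30% with cell ATP level not reduced by more than half and red fluorescence within 50% of control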; further: strong numbers were not always called active
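Test system: HT1080 cells expressing an RFP-PRO-GFP fluorescent reporter construct / Compound dosing: single-point 20 µM compound, 1% DMSO / Schedule: cells overnight before dosing, compound overnight, 37 °C, 5% CO2 / Evaluation: GFP/RFP fluorescence ratio / Control set: DMSO and RFP-L50D-GFP cell wells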
Yeast UUG start: yeast start codon fidelity modulation | S. cerevisiae UUG-firefly luciferase reporter, luminescence/redox ratio | activity score, % at 18.7 µM | hit rate 0.13% among 350,000;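 active means replicate mean at a twofold rise or more, about +100% in these data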;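 further: firefly luciferase made from a UUG start codon reports start codon fidelity; reporter light over untreated wells divided by growth signal over untreated wells; some hits fall short of that in this replicate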
HIV Env fusion: HIV envelope-mediated fusion inhibition; HeLa-JRFL Env/CEM21 cell fusion, luciferase; inhibition, % at 12.3 µM; hit rate 1.1% among 360,000; AID 651610;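 active means mean replicate inhibition score of at least 50 and every replicate individually at or above 50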;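 further: 0% = plate neutral controls and 100% = maraviroc near 300 nM; one replicate is shown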
eIF4H FP inh: inhibitors of RNA binding by human eIF4H; inhibition, % at 35 µM; hit rate 0.94% among 290,000; eIF4H fluorescence polarization binding assay; Q15056;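 active means 50% or more with normal probe brightness, or confirmed in later tests; about a fifth of its hits are not listed in these tables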;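 further: calls also rest on retests at 20 µM and on dose response follow-up; 0% = protein and probe with vehicle and 100% = probe without protein; strong numbers were not always called active; many hits fall short of the cut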
PABP polyA inh: PABP-poly(A) binding inhibition; P11940; PABP-poly(A) RNA binding, fluorescence polarization; inhibition, % at 35 µM; hit rate 1% among 290,000; AID 2014;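 active means 50% or more with normal probe brightness, or confirmed in later tests; about a fifth of its hits are not listed in these tables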;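 further: calls also rest on retests at 20 µM and on dose response follow-up; controls were probe without protein and protein plus probe with vehicle; some compounds called inactive have numbers as strong as hits; many hits fall short of the cut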
Target sequence (P11940 whole entry, looked up): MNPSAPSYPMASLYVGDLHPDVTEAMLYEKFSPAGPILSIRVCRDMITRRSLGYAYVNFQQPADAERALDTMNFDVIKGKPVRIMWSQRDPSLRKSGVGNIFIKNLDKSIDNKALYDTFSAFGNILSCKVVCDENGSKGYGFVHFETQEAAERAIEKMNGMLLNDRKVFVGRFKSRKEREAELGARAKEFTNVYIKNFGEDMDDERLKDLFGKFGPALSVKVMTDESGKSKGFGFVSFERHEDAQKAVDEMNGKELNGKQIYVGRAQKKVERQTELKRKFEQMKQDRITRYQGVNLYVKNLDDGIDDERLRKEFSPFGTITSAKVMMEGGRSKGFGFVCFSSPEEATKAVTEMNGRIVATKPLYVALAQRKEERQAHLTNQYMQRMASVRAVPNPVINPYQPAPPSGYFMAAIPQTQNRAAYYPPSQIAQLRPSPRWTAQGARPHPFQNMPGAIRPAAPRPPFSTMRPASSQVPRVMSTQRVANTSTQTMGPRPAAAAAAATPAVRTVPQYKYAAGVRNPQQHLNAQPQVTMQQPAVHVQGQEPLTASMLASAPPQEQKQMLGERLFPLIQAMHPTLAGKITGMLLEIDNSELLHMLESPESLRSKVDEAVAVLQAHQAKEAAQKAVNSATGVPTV
CSC inhib: blocks cancer stem cells; cancer stem cell-like cells viability, luminescence; inhibition, % at 7.5 µM; hit rate 1.1% among 300,000; AID 2717;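 active means mean at 75% or more and at least half the replicates too; tested in HMLE shEcad cells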;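 further: 0% = median of negative and 100% = median of positive control wells; the first replicate is given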
Rce1 inhib: inhibitors of yeast Ras-converting enzyme | Q03530 | yeast membranes, quenched prenylated peptide cleavage fluorescence | calls only | hit rate 0.27% among 290,000 | AID 2563;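 active means fall in fluorescence gain of 50% or more versus controls, with final raw signal at or below 3038400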;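 further: plate controls were neutral control wells for no effect and wells lacking membranes for full effect; tested at 10 µM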
Target sequence (Q03530 whole entry, looked up): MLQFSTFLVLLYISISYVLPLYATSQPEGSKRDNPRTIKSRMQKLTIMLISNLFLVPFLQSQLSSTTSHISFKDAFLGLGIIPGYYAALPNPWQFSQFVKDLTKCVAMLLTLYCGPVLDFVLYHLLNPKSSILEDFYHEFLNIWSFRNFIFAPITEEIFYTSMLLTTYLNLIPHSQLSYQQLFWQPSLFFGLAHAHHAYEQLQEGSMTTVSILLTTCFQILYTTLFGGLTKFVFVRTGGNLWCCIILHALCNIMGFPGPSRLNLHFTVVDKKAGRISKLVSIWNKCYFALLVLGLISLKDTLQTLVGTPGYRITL
eIF4H FP inh retest: also measured in eIF4H FP inh; calls as there; inhibition, %; compound at 20 µM; confirmation average;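 mean of two retest wells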
PABP polyA inh retest: further read-out of PABP polyA inh, marked with its call; inhibition, %; compound at 20 µM; confirmation repeats;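 mean of two retest wells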
MT1-MMP act inh RFP: second read-out of MT1-MMP act inh, no call of its own (marks repeat the call); RFP signal change, %; measured here: RFP expression control read;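 0 = vehicle wells; hits needed this value within 50% of zero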
An asterisk follows results filed as active; i = inactive; . = no result given; + = active, no number; & = joins results of further samples; [ ] = remark or other dose.

SMILES | MT1-MMP act inh | MT1-MMP act inh RFP | Yeast UUG start | HIV Env fusion | eIF4H FP inh | PABP polyA inh | CSC inhib | Rce1 inhib | others
COCCNC(=O)C(c1ccc(F)cc1)N(C(=O)CCC(=O)Nc1nccs1)c1cccc(C)c1 (stereo not given) | -7 | 1 | 0 | -67 | -4 | -6 | 2 | i
CC(=O)Nc1ccccc1Nc1nc(NCCO)nc(N2CCCC2)n1 | 6 | 0 | -12 | 1 | . | . | -12 | i
Cc1ccc2nc(NC(=O)C3CC(=O)N(Cc4ccco4)C3)sc2c1 (stereo not given) | 1 | -1 | . | 10 | 2 | 8 | 5 | i
COc1ccc(C(c2c(C)n(C)n(-c3ccccc3)c2=O)c2c(C)n(C)n(-c3ccccc3)c2=O)cc1 | -5 | 0 | -8 | -141 | 5 | -9 | -8 | i
CS(=O)(=O)c1ccc2nc(NC(=O)c3cccc(NS(=O)(=O)c4ccc(F)c(F)c4)c3)sc2c1 | -5 | -6 | . | . | -9 | 7 | 66 | i
CCC(CC)C(=O)Nc1cc([N+](=O)[O-])ccc1Cl | 4 | 5 | . | . | -3 | 68* | -8 | i | eIF4H FP inh retest=37;PABP polyA inh retest=70*
C/C(CC(=O)NCCCN1CCOCC1)=N\NC(=O)COc1ccc(Cl)cc1 | 1 | 0 | -3 | . | -9 | -8 | -1 | i
CCn1c(SCC(=O)NNC(=O)c2ccc(OC)cc2)nnc1-c1cccnc1 | 1 | 0 | -18 | -23 | -7 | -2 | -2 | i
COc1cccc(NC(=O)N2CCN(c3cccc(C)c3C)CC2)c1 | -4 | -10 | -7 | -25 | -6 | -4 | -1 | i
Cc1ccc(C(=O)N2CCCC(CCC(=O)N3CCN(c4ccccn4)CC3)C2)cn1 (stereo not given) | 2 | -2 | -14 | 8 | -5 | -6 | 1 | i
COc1cc(OC)cc(N(C(=O)c2snc(C(N)=O)c2N)C(C(=O)NCC2CCCO2)c2ccc(C)o2)c1 (stereo not given) | -8 | -5 | -11 | 4 | 3 | 4 | . | i
CC1(C)CC(=O)C2=C(C1)OC(N)=C(C#N)C2c1ccccc1OC(=O)N1CCOCC1 (stereo not given) | 0 | 5 | -12 | . | 3 | 0 | -15 | i
O=C1NC(=O)/C(=C\c2ccc(OCc3ccccc3)cc2)S1 | -4 | -5 | -29 | -16 | -14 | 2 | 34 | i
CC(Nc1nc(-c2ccncc2)nc2ccccc12)c1ccccc1 (stereo not given) | -7 | -8 | -14 | 30 | -4 | -10 | 67 | i
Cc1c(OC(C)C(=O)O)ccc2c(-c3ccccc3)cc(=O)oc12 (stereo not given) | 5 | 5 | 3 | 12 | 3 | 0 | 4 | i
Cc1ccc(C(O)c2nccn2C)o1 (stereo not given) | . | . | -8 | . | 16 | 12 | . | i
C=CCn1c(SCC(=O)N2CCN(c3ccccc3)CC2)nc2c([nH]c3ccccc32)c1=O | -5 | 0 | -10 | -38 | 4 | 5 | 7 | i
COc1ccc(C(=O)C=CNNC(=O)c2ccc(Cl)cc2)cc1 | 3 | 4 | -17 | 20 | 0 | -5 | 1 | i
CCOC(=O)CSc1nc2ccc(NC(=O)CSc3nnnn3Cc3ccccc3)cc2s1 | -3 | 0 | -31 | 1 | 1 | -10 | 10 | i
COc1ccc2cc(C(=O)N(C)CC(=O)Nc3ccccc3Br)ccc2c1 | -1 | 1 | -19 | . | . | . | -2 | .
Cc1nn2c(-c3cccnc3)ccnc2c1-c1ccccc1 | 1 | -2 | . | -143 | -6 | 6 | -3 | i
Cc1c(NC=C(C#N)C#N)c(=O)n(-c2ccccc2)n1C | 0 | 9 | . | -1 | 7 | 6 | -9 | i
CCOc1ccc(S(=O)(=O)N2CCCC(C(=O)NCC3CCCO3)C2)cc1Cl (stereo not given) | 5 | -5 | . | 0 | . | . | -10 | i
O=C(Nc1cc(S(=O)(=O)N2CCOCC2)ccc1Oc1ccc(F)cc1)C1=COCCO1 | 3 | -3 | . | 11 | . | . | 6 | i
COC(=O)c1nn(-c2ccc(C)cc2)ccc1=O | -2 | -1 | . | 1 | 1 | -20 | -8 | i

Other results
SMILES | MT1-MMP act inh | MT1-MMP act inh RFP | Yeast UUG start | HIV Env fusion | eIF4H FP inh | PABP polyA inh | CSC inhib | Rce1 inhib | others
O=C(O)CSCC(=O)Nc1cc(C(F)(F)F)ccc1Cl | 6 | 0 | -2 | -21 | 14 | 2 | -5 | i
CCc1cc2ccc(C)cc2nc1SCC(=O)NC1CCCC1 | -11 | -7 | -3 | 19 | -6 | 0 | . | i
COc1ccc(OC)c2[nH]c(=O)c(CCNC(=O)C(C)C)cc12 | 0 | 2 | -33 | 13 | -9 | -14 | -11 | i
CC1(C(=O)N(CC(=O)NC2CCCC2)Cc2ccccc2)CC(=O)N=C2C=CC=CN21 (stereo not given) | -4 | -3 | 5 | 4 | 8 | -2 | -2 | +
O=S(=O)(Nc1cccc(-c2ccc(N3CCCCCC3)nn2)c1)c1ccccc1Cl | 2 | -2 | -13 | -22 | -15 | -6 | 67 | i
O=C1CCc2cc(NS(=O)(=O)c3ccc([N+](=O)[O-])cc3)cc3c2N1CCC3 | -1 | -3 | -8 | 2 | . | . | . | i
CCCC(=O)Nc1cc(OC)c(C(=O)OC)cc1Cl | -5 | -5 | . | -13 | 1 | -10 | -9 | i
CC(=O)Nc1cccc(-c2ccnc3c2CC(C(=O)NCc2cccs2)O3)c1 (stereo not given) | 11 | -9 | 1 | -93 | . | . | . | .
O=C(CCc1nc2ccccc2[nH]1)Nc1ccc(F)cc1 | 3 | -1 | 5 | -30 | -5 | -6 | 7 | i
COc1cccc(NC(=O)c2ocnc2C)c1 | -6 | 1 | -13 | -116 | -2 | 0 | 3 | i
CC(C)C(=O)NCCc1nc2ccccc2n1CCc1ccccc1 | 1 | 2 | -15 | -4 | -5 | -3 | 10 | i
Cc1ccc2nsnc2c1S(=O)(=O)N1CCN(C(=O)C2CCCO2)CC1 (stereo not given) | -2 | 5 | -14 | -8 | 3 | -11 | -13 | i
CCc1nc2ccccc2n1Cc1ccc(OC)c(OC)c1 | -5 | -4 | 6 | -47 | 0 | 0 | 0 | i
Nc1ncnc2c1ncn2C1OC(CO)C(O)C1N (stereo not given) | 0 | 2 | -14 | . | 1 | -7 | -8 | i
COCCN(C(=O)c1cc(OC)c(OC)c(OC)c1)c1c(N)n(Cc2ccccc2)c(=O)[nH]c1=O | -2 | -3 | . | 1 | 2 | 10 | -3 | i
CCn1c(SCC(=O)NCCc2ccc(OC)c(OC)c2)nc2c([nH]c3ccccc32)c1=O | -1 | -4 | -14 | 70* | . | . | . | .
COc1ccc(C)cc1NC(=O)CSc1nnc(-c2ccccn2)n1Cc1ccco1 | 1 | -4 | -12 | 20 | 6 | -1 | -6 | i
O=C(CSc1nnc(C2COc3ccccc3O2)o1)Nc1nccs1 (stereo not given) | 6 | 12 | -9 | . | 12 | -5 | 3 | i
Cc1cc(NC(=O)CSc2nc3c(c(=O)n2C)SCC3)no1 | 5 | -2 | -6 | 1 | -3 | -6 | -4 | i
CC1CCN(CC(=O)Nc2ccc(Cl)cc2[N+](=O)[O-])CC1 | 1 | -2 | . | 14 | 1 | -4 | 15 | i
CCOc1nc(NCCc2ccc(OC)c(OC)c2)nc(NC(C)(C)CO)n1 | 2 | 3 | -6 | -4 | 3 | -9 | . | i
CCCCN(C(=O)c1ccc(S(=O)(=O)N(C)C)cc1)c1nc2ccccc2s1 | 1 | 2 | -6 | 26 | 11 | -1 | 3 | i
O=C(NNc1ccccc1[N+](=O)[O-])Nc1ccccc1 | 1 | -4 | . | . | -12 | 2 | 6 | i
Cc1ccc(CNC(=O)c2ccc(Cl)c(S(N)(=O)=O)c2)n1C | -3 | 0 | 5 | 16 | 25 | 13 | -6 | i
CCOC(=O)NC(=O)CSc1ccccn1 | 4 | 1 | -12 | . | -6 | -8 | -12 | i

(next part)
SMILES | MT1-MMP act inh | MT1-MMP act inh RFP | Yeast UUG start | HIV Env fusion | eIF4H FP inh | PABP polyA inh | CSC inhib | Rce1 inhib | others
O=C(NCC(=O)c1ccccc1)OCc1ccc([N+](=O)[O-])cc1 | 1 | 2 | -10 | -73 | 10 | -7 | -6 | i
Cc1cc(NC(=O)CSc2nc(C(C)C)nc3sc4c(c23)CCCC4)no1 | -3 | 2 | 11 | -25 | 1 | 4 | 21 | i
CC(C)NC(=O)Nc1ccc2c(c1)C(=O)N([C@H](C)CO)C[C@H](C)[C@@H](CN(C)C(=O)Nc1ccccc1)O2 | 8 | 8 | 13 | 13[16.7 µM] | . | . | -24 | .
O=C(CSCc1ccc(F)cc1)N1CCN(c2ccc(F)cc2)CC1 | 10 | -1 | 17 | 11 | -3 | 1 | 7 | i
O=C(NCc1ccc(F)c(F)c1)C1CCC(=O)N(CC2CCCCC2)C1 (stereo not given) | 0 | 3 | 3 | -3 | 3 | 0 | 1 | .
CC(=O)c1cccc(Nc2ncnc3ccc(Br)cc23)c1 | -7 | -9 | . | 21 | -5 | -5 | -2 | i
O=C(Cc1cccs1)N1CCC(c2nc3c(nnn3Cc3ccccc3Cl)c(=O)[nH]2)CC1 | -3 | -1 | -5 | 12 | 10 | -4 | 5 | i
CC(=O)NC(Cc1ccccc1F)C(=O)NC1CCN(C(=O)NCc2ccccc2)CC1 (stereo not given) | 1 | 6 | -15 | 7 | 3 | -6 | -1 | i
O=C(O)Cc1ccc2oc(-c3ccccn3)nc2c1 | -4 | -1 | -18 | 0 | 0 | 3 | -12 | i
O=C(CSc1ccc(/C=N/NC(=O)c2cccc(F)c2)o1)Nc1ccccc1 | -5 | -1 | -17 | . | 10 | -4 | 6 | i
c1ccc(-c2ccc(C(c3ccccc3)n3ccnc3)cc2)cc1 (stereo not given) | 3 | -2 | -31 | . | -3&8 | 5&-10 | 23 | i

Compounds above with an NH in an aromatic ring:
SMILES | MT1-MMP act inh | MT1-MMP act inh RFP | Yeast UUG start | HIV Env fusion | eIF4H FP inh | PABP polyA inh | CSC inhib | Rce1 inhib | others
C=CCn1c(SCC(=O)N2CCN(c3ccccc3)CC2)nc2c([nH]c3ccccc32)c1=O | -5 | 0 | -10 | -38 | 4 | 5 | 7 | i
COc1ccc(OC)c2[nH]c(=O)c(CCNC(=O)C(C)C)cc12 | 0 | 2 | -33 | 13 | -9 | -14 | -11 | i
O=C(CCc1nc2ccccc2[nH]1)Nc1ccc(F)cc1 | 3 | -1 | 5 | -30 | -5 | -6 | 7 | i
COCCN(C(=O)c1cc(OC)c(OC)c(OC)c1)c1c(N)n(Cc2ccccc2)c(=O)[nH]c1=O | -2 | -3 | . | 1 | 2 | 10 | -3 | i
CCn1c(SCC(=O)NCCc2ccc(OC)c(OC)c2)nc2c([nH]c3ccccc32)c1=O | -1 | -4 | -14 | 70* | . | . | . | .
O=C(Cc1cccs1)N1CCC(c2nc3c(nnn3Cc3ccccc3Cl)c(=O)[nH]2)CC1 | -3 | -1 | -5 | 12 | 10 | -4 | 5 | i

Fetched one by one from the list above:
SMILES | MT1-MMP act inh | MT1-MMP act inh RFP | Yeast UUG start | HIV Env fusion | eIF4H FP inh | PABP polyA inh | CSC inhib | Rce1 inhib | others
CC(Nc1nc(-c2ccncc2)nc2ccccc12)c1ccccc1 (stereo not given) | -7 | -8 | -14 | 30 | -4 | -10 | 67 | i
C/C(CC(=O)NCCCN1CCOCC1)=N\NC(=O)COc1ccc(Cl)cc1 | 1 | 0 | -3 | . | -9 | -8 | -1 | i
